# Screening results from PubChem.
# Measles inh: inhibitors of measles virus growth in infected cells | z-score (concentration not given with the values) | actives 0.1% (n = 33,000) | infected Vero cells, GFP fluorescence, 64 h; hits give low values;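 active means z-score under -3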;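 further: score is relative to mean and SD of the compound wells of a plate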
# * = called active by the depositor. The list is partial. The share of hits here may be higher or lower than overall.
SMILES,Measles inh
O=C(Nc1ccc(S(=O)(=O)Nc2ncccn2)cc1)N1c2ccccc2Sc2ccccc21,0.32
Cc1ccc(Cl)cc1NC(=O)c1cc(-c2cccs2)nc2ccccc12,-3*
CC(C)(C)C1CCC(C2(O)C(=O)Nc3ccccc32)C(=O)C1 (centres undefined),-0.2
Cc1ccc2nc(-c3ccc(C)c(NC(=O)Cc4ccccc4)c3)oc2c1,0.65
Cc1cccc(NC(=O)c2ccc(F)c(S(=O)(=O)N3CCC(C)CC3)c2)c1,-0.19
COc1cccc(-c2cc(C(F)(F)F)nc(-n3ccnc3C)n2)c1,0.34
CSc1nc2ccccc2c(=O)n1CC1COc2ccccc2O1 (centres undefined),-0.26
O=C(CN1N=C(c2ccc(Cl)cc2)CCC1=O)NCCC1=CCCCC1,-1.3
CCc1ccc2cc(-c3ccccc3)cn2c1,-0.66
OCCN1CCOCCN(CCO)CCN(CCO)CC1,0.61
COC(=O)c1ccc(-n2ncnc2-c2cccc(Br)c2)cc1,-0.25
Cc1cc(NCCO)nc(N2CCOCC2)n1,-0.06
Cc1ccc2cc3cc(C(=O)NCCc4ccc(Cl)cc4)oc3nc2c1,1.6
CCc1nn(-c2ccccc2)c2nc(-c3cccc(OC)c3)c3cc(OC)c(OC)cc3c12,0.76
O=[N+]([O-])c1ccc(N2CCCCC2)cc1NCCc1ccccc1,-1.6
O=C(c1cccs1)N1CCN(S(=O)(=O)c2cccc([N+](=O)[O-])c2)CC1,-1.3
COc1ccc(OC)c(NC(=O)c2oc(=O)c3ccccc3c2-c2ccc(C)cc2)c1,0.14
CCN1C(=O)CC(C(=O)Nc2ccccc2)SC1=Nc1ccc(OC(F)(F)Cl)cc1 (centres undefined),-0.26
CC1CC(Nc2ccccc2)c2ccccc2N1C(=O)COc1ccc(Cl)cc1 (centres undefined),-0.53
COc1ccc(C2C3=C(CCCC3=O)Nc3nc(SC)nn32)cc1Br (centres undefined),0.25
CCOc1ccc(C(O)(CCN2CCCCC2)C(C)C)cc1 (centres undefined),-0.7
CCOC(=O)CNC(=O)c1sc2ncn(CC(=O)N3CCC(C)CC3)c(=O)c2c1C,-0.23
Cc1ccccc1Nc1c(-c2ccccn2)nc2cccc(C)n12,-0.68
Cc1cc(=O)oc2ccc(OC(=O)CN3C(=O)c4cccc([N+](=O)[O-])c4C3=O)cc12,-0.22
CN(C)c1ccc(-c2c3c(nn2-c2ccccc2)CC(C)(C)CC3=O)cc1,-0.46
Cn1c(=O)c2c(nc(SCC(=O)c3ccccc3)n2CCCc2ccccc2)n(C)c1=O,-0.26
CCOC(=O)C1=C(C)NC2=C(C(=O)CC(C)(C)C2)C1c1ccc(OC)c(OC)c1OC (centres undefined),0.03
COC(=O)C1=C(C)NC2=C(C(=O)CC(C)(C)C2)C1c1cc(OC)c(OC)cc1Br (centres undefined),0.51
COc1cc2nc(SCC(=O)Nc3cc(C(F)(F)F)ccc3Cl)n3nc(C)nc3c2cc1OC,0.85
COc1ccc(C2CC(C(F)(F)F)n3nc(C(=O)Nc4ccccc4C(F)(F)F)c(Cl)c3N2)cc1OC (centres undefined),2.4
O=[N+]([O-])c1ccc(N2CCN(S(=O)(=O)c3ccc4ccccc4c3)CC2)cc1NCc1ccco1,-0.56
O=C(c1ccco1)c1cn(-c2ccccc2)nc1C(=O)c1nc2ccccc2s1,0.69
CCOc1ccc(-c2nc3cc(NCc4cc([N+](=O)[O-])cc(Br)c4O)ccc3o2)cc1,1.6
COc1ccc2nc(NC(=O)C3CC=C(C)CC3C(=O)O)sc2c1 (centres undefined),-0.07
COc1ccc(C(N)CCc2ccc(C)o2)cc1 (centres undefined),-0.2
Cc1ccc(CCNC(=O)CCS(=O)(=O)Cc2ccc(Cl)cc2)cc1,0.38
COc1ccccc1-n1nc(C(=O)Nc2ccc(F)cc2)c2ccccc2c1=O,-0.8
CCOc1ccccc1N1C(=O)c2ccc(C(=O)Nc3cccnc3)cc2C1=O,-1.2
CC1(C)CC(=O)C2=C(C1)Nc1ccccc1N(C(=O)C(F)(F)F)C2c1cccc(O)c1 (centres undefined),0.14
O=C1c2ccc(Oc3ccc([N+](=O)[O-])cc3)cc2C(=O)N1c1ccc2ccccc2c1,0.77
O=C(NCCc1c[nH]c2ccccc12)c1cccc(Br)c1,-0.23
COc1ccc(OC)c(S(=O)(=O)NC2CCCCC2C)c1 (centres undefined),-1.5
CCC(C)NC(=O)C1c2ccccc2C(=O)N1C1CC1 (centres undefined),-1.6
CCc1nc(C)cc2cc(OC)c(OC)cc12,-0.79
COc1ccc(OC)c(C2SCCN2S(=O)(=O)c2ccc(C)c(C)c2)c1 (centres undefined),0.65
CCOC(=O)c1ccc(NC(=O)c2sc3ccccc3c2Cl)cc1,-0.32
COc1cc(CNCc2ccc(C)cc2)cc(OC)c1,-0.14
Cc1ccc(-c2noc(CCC(=O)Nc3cccnc3)n2)cc1,-0.78
COc1ccc(NC(=O)c2ccc([N+](=O)[O-])o2)c(OC)c1,-1
Nc1ccc(-c2cc(-c3ccc(N)cc3)nc(-c3ccc(N)cc3)n2)cc1,-0.14

# Next results
SMILES,Measles inh
CCCCOC(=O)c1c(N)n(-c2ccc(C(=O)OCC)cc2)c2nc3ccccc3nc12,0.45
COc1ccc(CNC(=O)c2cc(=O)[nH]c3ccc(S(=O)(=O)N4CCCCC4C)cc23)cc1 (centres undefined),-1.1
CCC(=O)N/C(N)=N/c1nc(C)c2cc(C)ccc2n1,-0.29
O=C1CSC(c2cccs2)N1c1ccccc1 (centres undefined),-0.68
COc1cc(C(=O)N2N=C(c3ccccc3)CC2c2ccccc2[N+](=O)[O-])cc(OC)c1OC (centres undefined),2.1
CN=C1SC(CC(=O)Nc2ccccc2OC(F)F)C(=O)N1C (centres undefined),-0.16
Cc1ccc(O)c(NS(=O)(=O)c2cccc3nsnc23)c1,-0.07
COc1ccc(C2/C(=C(\O)c3ccc(Cl)cc3)C(=O)C(=O)N2c2ccc(C)c(Br)c2)c(OC)c1 (centres undefined),1.3
Cn1ncc(N=Cc2ccc([N+](=O)[O-])cc2)c1C(=O)N1CCOCC1,-0.23
Cc1ccc(/C(O)=C2\C(=O)C(=O)N(c3ccccn3)C2c2ccc(F)cc2)cc1 (centres undefined),-0.78
COc1ccc(S(=O)(=O)NCCC(=O)NCc2ccccc2)cc1,-1.4
COc1cc2ccccc2cc1C(=O)Nc1nnc(-c2ccc(F)cc2)s1,-0.06
CCCOc1ccc(N2C(=O)CC(N(CCc3ccccc3)C(C)=O)C2=O)cc1 (centres undefined),-0.13
CC1CCCCC1NC(=O)C1CCN(S(=O)(=O)c2ccc(Br)s2)CC1 (centres undefined),-0.86
COC(=O)C1=CN(Cc2ccc(Cl)cc2)C=C(C(=O)OC)C1c1ccccc1Br,-2
CCOc1ccc2nc(NC(=O)c3ccc(S(=O)(=O)N4CCc5ccccc5C4)cc3)sc2c1,1.1
O=C(c1ccccc1Cl)N1CCN(c2ccc(F)cc2)CC1,-1
CCOc1ccccc1C1C(C(=O)OC)=CN(C)C=C1C(=O)OC,0.72
COc1ccc([N+](=O)[O-])cc1C(=O)NCCOc1ccc(Cl)cc1,-0.15
CCCCOc1ccc(CSC2=NCCN2)cc1[N+](=O)[O-],-0.47
COc1ccc(NC(=O)c2noc3c2CCCC3)cc1OC,0.83
CC(=O)Nc1ccc2c(c1)OCCOCCOc1cc(NC(C)=O)ccc1OCCOCCO2,0.76
CCOC(=O)c1c(N)sc2c1CCC(C(C)(C)C)C2 (centres undefined),0.21
CN(C(=O)c1cccc(N2C(=O)C3CC=CCC3C2=O)c1)C1CCCCC1 (centres undefined),0.06
Cc1ccc(C(=O)Nc2nnc(C(C)(C)C)s2)cc1,-0.06
C(CN1CCOCCOCCOCC1)CN1CCOCCOCCOCC1,-0.3
CCN(c1cccc(C)c1)S(=O)(=O)c1ccc2sc3c(=O)[nH]cnc3c2c1,0.68
CCN(CC(=O)N1CCCc2c1c(=O)oc1ccc(O)cc21)c1ccccc1,-0.17
Cc1ccc(C(=O)Nc2ccc(I)cc2)cc1S(=O)(=O)N1CCOCC1,0.56
CC1=C(C(=O)Nc2ccccc2F)C(c2ccc3c(c2)OCO3)C2=C(CCCC2=O)N1 (centres undefined),-0.41
COc1cccc(CNc2sc3c(c2C(=O)Nc2cc(OC)ccc2OC)CCCC3)c1,-0.78
Cc1cccc(NC(=O)c2sc3ncn(C)c(=O)c3c2C)c1,0.35
CCCSc1nnc2c(n1)OC(c1cccc(OCC)c1OC)Nc1ccccc1-2 (centres undefined),-0.97
COc1ccc2c(=O)c(Oc3cccc(C)c3)c(C(F)(F)F)oc2c1,-1.5
CN(C)c1ccc(C(=O)Nc2nc3ccc(Cl)cc3s2)cc1,0.32
CCOc1ccc(NC(=O)c2ccc(N3CC4CC(C3)c3cccc(=O)n3C4)c(NC(=O)c3ccccc3Br)c2)cc1 (centres undefined),1.2
O=C(Nc1cc(-c2nc3ccccc3s2)ccc1Cl)c1cccnc1Cl,0.05
COc1ccc(CCNC(=O)C2CCN(S(=O)(=O)c3ccc(OC)cc3)CC2)cc1,0.49
CCN(CC)CCN1C(=O)c2ccccc2NC1c1cccc(F)c1 (centres undefined),1.2
CC(=O)c1ccc2c(c1)Cc1ccccc1-2,-0.19

# Brought forward from above: three entries, then new ones.
SMILES,Measles inh
COc1ccc(CCNC(=O)C2CCN(S(=O)(=O)c3ccc(OC)cc3)CC2)cc1,0.49
CCN(CC)CCN1C(=O)c2ccccc2NC1c1cccc(F)c1 (centres undefined),1.2
CC(=O)c1ccc2c(c1)Cc1ccccc1-2,-0.19
CCOc1ccccc1C1C(C(=O)N2CCOCC2)=C(C)Nc2nc3ccccc3n21 (centres undefined),0.08
COc1ccc(CCn2c(SCC#N)nc3c(sc4ccccc43)c2=O)cc1OC,1.4
CCC(=O)Oc1cc2c(C(=O)OC)c(C)oc2cc1Br,0.17
Cn1c(CNc2ccc(C(=O)O)cc2)c(C#N)c2ccccc21,-1.3
O=C(Cn1cc(C(=O)C(F)(F)F)c2ccccc21)NCc1ccccc1,0.65
CCCCn1c(=S)[nH]c2sc3c(c2c1=O)CCCC3,-1.1
COc1ccc(Oc2coc3cc(OC(C)C(=O)OCC(C)C)ccc3c2=O)cc1 (centres undefined),-0.38
Cc1cc2nc(-c3cccc(NC(=O)COc4ccccc4)c3C)oc2cc1C,-0.03
Cc1ccc(CNC(=O)CCS(=O)(=O)c2ccc(Cl)cc2)cc1,1.3
O=C(c1cccn2c(=O)c3cc(Br)ccc3nc12)N1CCN(c2ccccn2)CC1,-0.16
CC(C)c1ccc(C2/C(=C(\O)c3ccccc3)C(=O)C(=O)N2CCN(C)C)cc1 (centres undefined),0.08
O=c1ccnc(SCc2ccccc2Cl)[nH]1,-1.1
CCOc1ccc(-n2ccnc2SCC(=O)Nc2cccc(C)c2)cc1,-1.3
COc1cccc2sc(=NC(=O)C3CCCCC3)n(C)c12,0.72
Cc1ccc(-c2nnn(CC(=O)Nc3ccc(OC(F)(F)F)cc3)n2)cc1,0.34
COc1ccccc1NC(=O)CSc1nc2c(sc(=S)n2Cc2ccco2)c(=O)n1-c1ccccc1,-0.55
OC(c1cccc(OCc2ccccc2)c1)c1cccs1 (centres undefined),-0.46
CC1=C(C(=O)OC2CCCCCC2)C(c2cccc3ccccc23)NC(=O)N1 (centres undefined),-0.69
CC(=O)Oc1cc(-c2ccccc2)cc2oc(-c3ccccc3)cc12,1.1
COC(=O)c1ccccc1-n1c(CCC(=O)O)ccc1-c1ccc(F)cc1,-0.76
COc1ccc(-c2nnc(Nc3ccc4c(c3)ncn4C)c3ccccc23)cc1,0.8
CCN(CC)CCSc1nc(O)c(C2CCCCC2)c(=O)[nH]1,-0.38
O=C1CCCC2=C1C(c1cccc(Br)c1)c1c(nc(SCc3ccc([N+](=O)[O-])cc3)[nH]c1=O)N2 (centres undefined),-1
CCOc1cc(C2C(C(=O)OCC3CCCO3)=C(C)NC3=C2C(=O)CC(c2cccs2)C3)cc([N+](=O)[O-])c1O (centres undefined),-0.79
O=C1CCC(=O)N1c1ccc(NC2CCN(Cc3ccccc3)CC2)c([N+](=O)[O-])c1,0.6
N#Cc1ccccc1NC(=O)c1c(O)c2cccc3c2n(c1=O)CC3,-0.21
CC(C)COc1cccc(-c2cc(C(=O)O)c3ccccc3n2)c1,-1.4
Cc1ccccc1NC(=O)c1ccc(F)c(S(=O)(=O)NC2CCCCCC2)c1,-0.67
CN(C)c1ccc(NC(=O)COc2ccc(Br)cc2)cc1,-0.11
CCOc1cccc2c1OC(c1cccc(OC)c1OC)N1N=C(c3cccnc3)CC21 (centres undefined),0.78
CCc1ccccc1N(C)C(=O)CCn1c(=S)oc2ccccc21,-1.8
CCCN1CCN(C(=O)C2c3ccccc3C(=O)N(C)C2c2ccc(OC)c(OC)c2)CC1 (centres undefined),0.44

# By substructure, those above containing a Cl atom
SMILES,Measles inh
Cc1ccc(Cl)cc1NC(=O)c1cc(-c2cccs2)nc2ccccc12,-3*
O=C(CN1N=C(c2ccc(Cl)cc2)CCC1=O)NCCC1=CCCCC1,-1.3
Cc1ccc2cc3cc(C(=O)NCCc4ccc(Cl)cc4)oc3nc2c1,1.6
CCN1C(=O)CC(C(=O)Nc2ccccc2)SC1=Nc1ccc(OC(F)(F)Cl)cc1 (centres undefined),-0.26
CC1CC(Nc2ccccc2)c2ccccc2N1C(=O)COc1ccc(Cl)cc1 (centres undefined),-0.53
COc1cc2nc(SCC(=O)Nc3cc(C(F)(F)F)ccc3Cl)n3nc(C)nc3c2cc1OC,0.85
COc1ccc(C2CC(C(F)(F)F)n3nc(C(=O)Nc4ccccc4C(F)(F)F)c(Cl)c3N2)cc1OC (centres undefined),2.4
Cc1ccc(CCNC(=O)CCS(=O)(=O)Cc2ccc(Cl)cc2)cc1,0.38
CCOC(=O)c1ccc(NC(=O)c2sc3ccccc3c2Cl)cc1,-0.32
COc1ccc(C2/C(=C(\O)c3ccc(Cl)cc3)C(=O)C(=O)N2c2ccc(C)c(Br)c2)c(OC)c1 (centres undefined),1.3
COC(=O)C1=CN(Cc2ccc(Cl)cc2)C=C(C(=O)OC)C1c1ccccc1Br,-2
O=C(c1ccccc1Cl)N1CCN(c2ccc(F)cc2)CC1,-1
COc1ccc([N+](=O)[O-])cc1C(=O)NCCOc1ccc(Cl)cc1,-0.15
CN(C)c1ccc(C(=O)Nc2nc3ccc(Cl)cc3s2)cc1,0.32
O=C(Nc1cc(-c2nc3ccccc3s2)ccc1Cl)c1cccnc1Cl,0.05
Cc1ccc(CNC(=O)CCS(=O)(=O)c2ccc(Cl)cc2)cc1,1.3
O=c1ccnc(SCc2ccccc2Cl)[nH]1,-1.1
